Screens deposited in PubChem BioAssay by Johns Hopkins Ion Channel Center.
KCNQ2 enhance: enhances the rat KCNQ2 potassium channel; O88943; CHO-K1 KCNQ2, FluxOR thallium flux fluorescence; hits give high values; B-score at 10 µM; 310,000 tested, 0.54% active;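 active = fluorescence ratio B-score at least 3 SD of library B-scores, with initial fluorescence B-score within 3 SD, cut at about 5.3 in these data; same plate scores as AID 2156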;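 note: B-score of peak minus minimum over baseline fluorescence ratio after K+ and Tl+ stimulus; positive B-score means potentiation of KCNQ2 with more thallium influx and brighter signal; only the inactives scoring about 0 or higher are listed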
Target sequence (O88943 whole entry, looked up): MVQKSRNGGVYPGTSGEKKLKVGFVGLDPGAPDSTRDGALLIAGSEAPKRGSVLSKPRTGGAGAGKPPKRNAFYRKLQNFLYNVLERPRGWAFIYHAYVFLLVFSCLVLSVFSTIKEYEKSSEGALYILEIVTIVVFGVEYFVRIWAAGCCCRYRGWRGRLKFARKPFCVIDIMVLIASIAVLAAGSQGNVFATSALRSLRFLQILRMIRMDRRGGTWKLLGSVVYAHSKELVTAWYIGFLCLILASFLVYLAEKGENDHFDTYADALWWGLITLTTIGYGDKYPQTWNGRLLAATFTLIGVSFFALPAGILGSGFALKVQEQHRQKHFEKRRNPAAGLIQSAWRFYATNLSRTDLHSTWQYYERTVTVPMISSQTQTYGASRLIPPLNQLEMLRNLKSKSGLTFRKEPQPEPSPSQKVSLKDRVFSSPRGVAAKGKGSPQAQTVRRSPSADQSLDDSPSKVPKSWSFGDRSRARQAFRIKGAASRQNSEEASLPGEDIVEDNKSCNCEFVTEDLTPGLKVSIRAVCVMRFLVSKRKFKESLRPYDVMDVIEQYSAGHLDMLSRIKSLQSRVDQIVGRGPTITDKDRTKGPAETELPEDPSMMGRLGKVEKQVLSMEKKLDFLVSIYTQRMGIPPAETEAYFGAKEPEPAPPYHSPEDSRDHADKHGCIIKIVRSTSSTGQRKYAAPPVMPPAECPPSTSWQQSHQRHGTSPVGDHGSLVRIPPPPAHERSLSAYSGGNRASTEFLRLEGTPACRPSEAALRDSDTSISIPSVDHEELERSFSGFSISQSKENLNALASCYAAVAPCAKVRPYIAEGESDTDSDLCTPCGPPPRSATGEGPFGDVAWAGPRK
KCNQ2 enhance baseline: recorded beside KCNQ2 enhance, whose call it bears; B-score; compound at 10 µM; measured here: initial fluorescence intensity artifact check;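 brightness before thallium and not channel activity; 0 = typical well and far values either way flag optical interference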
The depositor's hits bear a star.

SMILES	KCNQ2 enhance	KCNQ2 enhance baseline
Cc1ccc(C(C)C)cc1S(=O)(=O)NCc1cccnc1	0.62	-0.53
CCCOC(=O)NC1CCS(=O)(=O)C1 (centres undefined)	0.73	-1.3
CCCCCCNC(=O)CNC(=S)N(Cc1cccs1)C1CCCCC1	0.72	0.6
CC1CCCCC1NC(=O)CN1C(=O)NC(Cc2ccccc2)(Cc2ccccc2)C1=O (centres undefined)	0.07	-1.1
CCN(CC)C(=O)CSC1=Nc2ccccc2C2=NC(Cc3c[nH]c4ccccc34)C(=O)N12 (centres undefined)	0.97	-1.7
CCCCN1C(=O)C(O)=C(C(C)=O)C1c1ccccc1 (centres undefined)	0.69	-0.77
Nc1ccc(C(=O)c2cccs2)cc1	2.2	-0.34
COc1ccc(Cn2c(-c3ccc(OC)cc3)nc3c(c(=O)c4ccccc4n3C)c2=O)cc1	0.38	-0.09
Cc1cc(C)cc(NC(=O)CSc2ncc(S(=O)(=O)c3ccccc3)c(=O)[nH]2)c1	0.58	1.4
O=C(OCCN1C(=O)c2cccc3c(N4CCOCC4)ccc(c23)C1=O)c1ccc(Cl)cc1Cl	0.03	0.21
COC(=O)c1ccc(/C=N\NC(=O)c2c(C)nc3ccc(Cl)cn23)cc1	0.03	-0.59
NC(=O)c1nsc(C(=O)N(CC(=O)NC2CCCC2)c2cnc3ccccc3c2)c1N	1.1	-1.1
Cc1ccc(NC2=NCCC2)cc1Cl	0.52	-0.68
CCOC(=O)C1CCN(C(=O)c2cccc(Cl)c2)CC1	0.56	0.04
COc1cc(/C=N/N2CCOCC2)ccc1OCc1ccc(Cl)cc1	0.42	-0.17
Cc1ccc(S(=O)(=O)N(C)CC(=O)NCCCc2ccccc2)cc1	1	1.6
O=C(c1ccco1)N1CCN(C(=O)c2ccc(-c3cccc(C(F)(F)F)c3)o2)CC1	0.1	-0.63
COc1cccc(CNC(=O)C2CCN(S(=O)(=O)c3ccc4c(c3)NC(=O)C(C)S4)CC2)c1 (centres undefined)	0.35	-0.03
O=C1CC(NC(=O)c2ccc(Cl)cc2)C(=O)N1 (centres undefined)	1.4	-0.59
CC(C)CNC(=O)C(=O)NCc1ccccc1	1.7	-0.42
CN(C)S(=O)(=O)NCC1CCCN(Cc2cc3ccccc3s2)C1 (centres undefined)	1.6	0
COc1ccc(NC(=O)N2CCc3ccccc3C2)cc1OC	1	1.9
O=C(O)Cc1ccc(NC(=O)C2CC=CCC2C(=O)O)cc1 (centres undefined)	1.1	0.65
O=C(CSc1ccccc1)NC(=O)NCc1ccccc1	0.93	-1.1
O=c1c2ccccc2nnn1CCO	0.89	0.06
CCOc1ccc(NC(=O)c2cc3c(C)nc4ccccc4c3o2)cc1	0.16	-1.3
COc1cc(/C=c2\s/c(=C(/C#N)C(=O)N3CCCC3)n(-c3ccccc3)c2=O)ccc1O	0.32	0
O=C1NC(c2ccccc2OC(F)F)Oc2ccccc21 (centres undefined)	0.43	-1.2
O=C(Cc1ccccc1)NCc1ccc(-n2cccc2)cc1	1.1	0.02
COC(=O)c1cc(NS(=O)(=O)c2ccc(F)cc2)ccc1N1CCOCC1	0.09	-1.4
Cc1ccccc1C(=O)NNC(=O)c1ccc(F)cc1	1.7	0.48
O=C(CCC(=O)NNC(=O)c1ccccc1[N+](=O)[O-])NCc1ccccc1	0.01	-0.75
O=C(CSc1n[nH]c(=O)n1Cc1ccco1)c1ccc(F)cc1	1.2	1.2
CCCS(=O)(=O)N1CCN=C1SCc1ccc(F)cc1	0.3	-0.2
COc1cc([C@@H]2c3cc4c(cc3[C@H](O)[C@H]3COC(=O)[C@H]23)OCO4)cc(OC)c1OC	0.45	-1.7
CC(=O)NCCNc1nc2c(-c3ccccc3)nnn2c2ccccc12	0.01	-2.7
Cc1oc(-c2ccccc2)cc1C(=O)NC1CCN(Cc2ccccc2)CC1	0.42	-1.3
Cc1ccc(S(=O)(=O)Nc2ccc(C(=O)N3CCCC3)cc2)c(C)c1NS(C)(=O)=O	1.4	-1.2
CC(C)CCNC(=O)C(=O)NCCC1=CCCCC1	0.57	2.2
O=C(Nc1nc2cc3c(cc2s1)OCCO3)c1ccncc1	1.7	0.09
CCOC(=O)c1c(C)[nH]c(C(=O)OC)c1CCC(=O)OC	1.3	1.2
Cc1ccccc1NC(=O)N1C2CCCC1CC(NC(=O)C(C)(C)C)C2 (centres undefined)	0.06	0.9
COc1ccc(/C=C/C(=O)NC(C)CCc2ccccc2)cc1OC (centres undefined)	2.2	-1.5
COc1ccc(CNC(=O)C2CCN(C(=O)Cc3ccccc3)CC2)cc1	0.92	-0.24
CS(=O)(=O)N(CC(=O)NCc1ccco1)c1ccc(OCc2ccccc2)cc1	1.9	-0.15
Cc1ccc2nc(C)c(C(=O)N/N=C/c3ccc(N4CCOCC4)cc3)cc2c1	0.95	1.6
Cn1nccc1NS(=O)(=O)c1ccc(F)cc1	2	0.58
COc1cccc(-n2nc(C(=O)O)c3ccccc3c2=O)c1	0.37	1.1

Retrieved one by one from the entries so far:
SMILES	KCNQ2 enhance	KCNQ2 enhance baseline
COc1ccc(/C=C/C(=O)NC(C)CCc2ccccc2)cc1OC (centres undefined)	2.2	-1.5
Cn1nccc1NS(=O)(=O)c1ccc(F)cc1	2	0.58

Further results
SMILES	KCNQ2 enhance	KCNQ2 enhance baseline
CC(C)N(C(=O)COC(=O)[C@H](C)NC(N)=O)c1ccccc1	0.26	-0.03
CC1CN(C(=O)c2cccs2)CCN1C(=O)c1cccs1 (centres undefined)	0.01	2.8
CCN(CC)CCNC(=O)Cn1cnc2sc(C)c(S(=O)(=O)N3CC(C)CC(C)C3)c2c1=O (centres undefined)	0.3	0.62
c1ccc2c(OCCCN3CCCCCC3)cccc2c1	0.29	0.33
CC1=NN(C(=O)c2csc(C)c2)C(O)(C(F)(F)F)C1 (centres undefined)	2.9	-0.05
Cc1ccccc1C(=O)O/N=C(\N)c1ccncc1	1.2	-1.2
CCN(CC)CCCNc1oc(/C=C/c2ccccc2)nc1C#N	1.6	-1.2
Clc1nc(Cl)nc(NCCC2=CCCCC2)n1	0.33	-1.7
Cc1ccc(S(=O)(=O)N2CCC(C(=O)Nc3ccccc3N3CCCC3)CC2)cc1C	2	0.68
Cc1cc([N+](=O)[O-])nn1CC(=O)N/N=C/c1ccc(O)cc1O	0.22	0.76
CCOC(=O)c1ccc(CC(=O)c2oc3cc(O)ccc3c2C)o1	0.7	0.02
O=C(Nn1c(-c2ccccc2)nc2ccccc2c1=O)c1ccco1	0.08	-0.84

Filtered by structure: the entries above with four or more nitrogen atoms (ten)
SMILES	KCNQ2 enhance	KCNQ2 enhance baseline
CCN(CC)C(=O)CSC1=Nc2ccccc2C2=NC(Cc3c[nH]c4ccccc34)C(=O)N12 (centres undefined)	0.97	-1.7
COC(=O)c1ccc(/C=N\NC(=O)c2c(C)nc3ccc(Cl)cn23)cc1	0.03	-0.59
NC(=O)c1nsc(C(=O)N(CC(=O)NC2CCCC2)c2cnc3ccccc3c2)c1N	1.1	-1.1
O=C(CCC(=O)NNC(=O)c1ccccc1[N+](=O)[O-])NCc1ccccc1	0.01	-0.75
CC(=O)NCCNc1nc2c(-c3ccccc3)nnn2c2ccccc12	0.01	-2.7
Cc1ccc2nc(C)c(C(=O)N/N=C/c3ccc(N4CCOCC4)cc3)cc2c1	0.95	1.6
CCN(CC)CCNC(=O)Cn1cnc2sc(C)c(S(=O)(=O)N3CC(C)CC(C)C3)c2c1=O (centres undefined)	0.3	0.62
CCN(CC)CCCNc1oc(/C=C/c2ccccc2)nc1C#N	1.6	-1.2
Clc1nc(Cl)nc(NCCC2=CCCCC2)n1	0.33	-1.7
Cc1cc([N+](=O)[O-])nn1CC(=O)N/N=C/c1ccc(O)cc1O	0.22	0.76

Next entries:
SMILES	KCNQ2 enhance	KCNQ2 enhance baseline
CCOc1ccc(NC(=O)Cn2nnc(C(=O)NCCc3ccc(OC)c(OC)c3)c2N)cc1	0.6	-0.52
C[N+](C)(C)CCN1C(=O)CSC1=O	0.81	0.04
O=C(Nc1cc(Cl)ccc1N1CCOCC1)c1cccnc1	1	0.38
CCc1nnc(NC(=O)C2CCCN2S(=O)(=O)c2ccc(F)cc2)s1 (centres undefined)	0.58	-1.4
O=C1CCCc2oc3c(c21)CCCC3	1.4	0.41
COc1ccc(-c2csc(N(CCCN(C)C)C(=O)c3ccc(C)cc3)n2)cc1	0.2	1.1
CC(C)Cc1cc(C(=O)NCc2cccs2)no1	0.31	-1.5
Cc1ccc(C(=O)c2coc3cc([N+](=O)[O-])c(O)c([N+](=O)[O-])c23)cc1	1.8	-1.6
Cc1cc(C(F)F)n2nc(C(=O)Nc3cccnc3Cl)nc2n1	1.2	0.07
CO/N=C/NC(=O)Cc1cn(-c2ncc(C(F)(F)F)cc2Cl)c2ccccc12	0.04	-0.98
COc1ccc(NC(=O)CCn2cccc2)cc1	0.3	2.2
COc1cccc(C(=O)Nc2cccc(C(C)=O)c2)c1	1.1	-2.2
CS(=O)(=O)N1CCCC(C(=O)N2CCN(c3cccc(Cl)c3)CC2)C1 (centres undefined)	0.22	0.33
NC(=O)COc1ccc2c3c(c(=O)oc2c1)CCCCC3	0.01	-0.59
CCC(C)c1ccc(NC(=O)c2[nH]c(C)c(C(C)=O)c2C)cc1 (centres undefined)	0.67	0.35
Cc1c(C2CC(=O)N(c3ccccc3)C2=O)[nH]n(-c2ccccc2)c1=O (centres undefined)	0.06	-1.7
CN(C)C(=O)c1ccc(-n2cnc3ccccc3c2=O)cc1	2.8	-0.32
CC1=NS(=O)(=O)c2cc(Cl)ccc2N1	1.6	0
COc1ccc(NC(=O)N2CCCCCC2)cc1OC	0.25	0.84
O=c1cc(NCc2ccco2)c2ccccc2o1	0.27	0.12
Nc1nc(SCC(=O)NC2CCCc3ccccc32)n[nH]1 (centres undefined)	0.04	-0.63
O=C(c1ccc(COc2ccccc2[N+](=O)[O-])o1)N1CCCCCC1	0.74	0.72
Cn1nc(C(F)(F)F)c(C(=O)Nc2cccc(Cl)c2)c1Cl	0.62	-0.23
CCOC(=O)COc1ccc2c(=O)c(-c3ccccc3)coc2c1	0.52	-0.5
O=C(/C=C/c1cccc(Cl)c1)NCCCN1CCOCC1	0.66	0.32
C=CCn1c(O)c(C(CC)=NCc2cccnc2)c(=O)[nH]c1=O	0.96	-0.01
COc1ccccc1-c1noc2ncnc(Nc3cccc(C)c3C)c12	0.01	-0.43
O=C(NCc1ccccc1F)C12CC3CC(CC(C3)C1)C2	1.3	3.3
CCC(=O)Nc1c(C)n[nH]c1C	0.04	-2.3
COc1cc(/C=C/C(=O)NC(=O)c2ccccc2O)ccc1OC(C)=O	0.93	-1.2
C=CCOc1c(CNc2cccc(C(=O)O)c2)cccc1OC	1.1	0.38
Cc1cc(C)cc(N(CCC#N)C(=O)COC(=O)c2nc3nc(C)cc(C)n3n2)c1	0.39	-0.04
COc1cccc(OCc2cc(C(=O)NCc3ccc4c(c3)OCO4)no2)c1	1.2	-1.3
Cc1cc(C)c(NC(=O)Cn2ncc3ccccc32)c(C)c1	0.93	0.23
CCn1c(C)nc2cc(S(N)(=O)=O)ccc21	0.66	0.55
CNC(=O)c1nnn(Cc2ccccc2)c1NC(=O)C(F)(F)F	0.43	0.62
COc1ccc(CCCc2n[nH]c(=S)o2)cc1	1.6	-0.65
O=C(O)CSc1ccc(Oc2ccc(SCC(=O)O)cc2)cc1	1.4	0.16
Cc1ccc(Cn2nnnc2CN2CCC(O)(c3ccccc3F)CC2)cc1	2.7	-3.1
O=C(Nc1ccc(CN2CCOCC2)cc1)c1ccc(-c2cc(Cl)ccc2Cl)o1	0.02	-0.05
CC1CCN(C(=O)C(C)c2ccc([N+](=O)[O-])cc2)CC1 (centres undefined)	1.4	0.54
COc1ccc(Cl)cc1S(=O)(=O)N1CCC(O)(c2ccc(Cl)cc2)CC1	1.9	0.81
CC(Oc1ccc(Cl)cc1Cl)C(=O)N(Cc1ccco1)C1CCS(=O)(=O)C1 (centres undefined)	1.1	-0.24
COc1ccc(CNC(=O)C2CCN(S(=O)(=O)c3c(C)noc3/C=C/N(C)C)CC2)cc1	0.77	-1.4
COc1ccccc1C(=O)NC(C)C(c1cccs1)N1CCN(C)CC1 (centres undefined)	0.04	0.77
O=C(NNC(=O)C1CCN(Cc2cccc(F)c2)CC1)c1cccc(Cl)c1	1.2	-1
COc1ccc2cc3cc(C(=O)NCc4cccnc4)oc3nc2c1	0.36	-0.92
O=C(NCc1ccccc1)c1ccc(COCC(F)(F)F)o1	0.91	-0.62
O=C(CCc1nnc2n(Cc3ccc(F)cc3)c(=O)c3ccccc3n12)NCCN1CCOCC1	0.55	-0.93
CN(C)CCCNC(=O)C(=O)Nc1cc2c3c(c1)CCC(=O)N3CCC2	1.1	-0.74
Cc1cc(/C=N\NC(=O)CC(=O)NC2CCCCC2)c(C)n1-c1ccc(Cl)cc1	0.14	-0.17
CC1Sc2ccc(S(=O)(=O)N3CCC(C(=O)NCc4ccc(Cl)cc4)CC3)cc2NC1=O (centres undefined)	1.2	-0.03
O=C(c1cccc(NS(=O)(=O)c2ccccc2)c1)N1CCN(c2ccccc2)CC1	1.6	0
COC(=O)Cn1c(O)c(N=NC(=O)CNC(=O)COc2cccc(C)c2)c2ccccc21	0.78	1.3
NC(=O)c1sc2nc3c(cc2c1N)CCCCCC3	0.3	1.4
Cn1cc([N+](=O)[O-])c(C(=O)NNC(=O)c2ccc([N+](=O)[O-])cc2Cl)n1	1.5	-0.35
Cc1nnc(N2C(=O)C(=O)/C(=C(/O)c3ccc4c(c3)CC(C)O4)C2c2ccccc2F)s1 (centres undefined)	0.36	0.96
Cc1ccccc1-c1nc(CS(=O)CC(=O)NCc2ccccc2)c(C)o1 (centres undefined)	2.1	-0.49
O=c1[nH]cnc2cc(-c3ccc(Br)cc3)sc12	0.04	1.2
O=C1NC2(CCCCCC2)Cc2ccccc21	0.85	-0.8
CCn1ncc(Cl)c1C(=O)NC(=S)Nc1ccccc1Br	7.1*	0.67*
Cc1ccc(NC(=O)CC2S/C(=N/N=C/c3ccco3)NC2=O)cc1Cl (centres undefined)	0.7	-0.24

These rows are one share of the data. The share of hits here may be higher or lower than overall.
